PINK1 modulator = changes PINK1 expression; PINK1 immunofluorescence, high-content cytometry, 24 h; Potency, µM (series often up to 76.6 µM), for the others: at the top dose activation (PINK1 increase), hits mostly activators; hit rate 0.2% among 410,000; AID 624263; active = well fitted activation curve with a large enough effect; inconclusive = small, poorly fitted or top-dose-only effect; inactive = flat fitted curve, though single readings scatter; cell line not stated here;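 also: potency is read from the fitted curve at half-maximal effect; % of control where 0% means no effect; nearly all actives have a fitted effect of over 65% in size; a mitochondrial uncoupler was the plate control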
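Compound titrations (5 concentrations, 24 h) on a stable cell line; DMSO and CCCP controls. Endpoint: fixed-cell PINK1 immunofluorescence with mitochondrial, cell and nuclear markers, scanned by microplate cytometer.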
gsp ag = agonists of gsp mutant (McCune-Albright syndrome); gsp mutant cells, cAMP HTRF, 30 min; control for the full effect not named in the record; Potency, µM (top dose mostly 76.9 µM), for inactives: top-dose activation (cAMP increase), hits mostly activators; hit rate 0.13% among 340,000; active = well fitted activation curve with a large enough effect; inconclusive = small, poorly fitted or top-dose-only effect, or another doubt; inactive = no such curve, though single readings can be large or run the other way; cell line not stated here;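 also: phosphodiesterase inhibitor Ro 20-1724 added with compounds to block cAMP breakdown; potency is read from the fitted curve at half-maximal effect; nearly all actives have a fitted effect of over 60% in size; about a fifth of the inactives were tested at one dose only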
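Cells in DMEM/10% FBS with G418 were pretreated with compounds in DMSO plus […] (300 uM stock) for 30 min at 37C. cAMP was measured by HTRF (cAMP-d2 plus anti-cAMP antibody-K) after 30 min at room temperature.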
D2 ag = agonists of human D2 dopamine receptor (beta-arrestin) | AID 624465 | hit rate 0.084% among 360,000 | DiscoveRx PathHunter D2 beta-arrestin, luminescence, 90 min; 100% = 57 uM dopamine signal | P14416 | activation, % (concentration not given with the values); in the data active = activation above about 40%; inconclusive = about 15% to 40%; inactive = below about 15%; also: compound concentration not given in the record; the text of the record calls up to 30% inactive
Target sequence (P14416 whole entry, looked up): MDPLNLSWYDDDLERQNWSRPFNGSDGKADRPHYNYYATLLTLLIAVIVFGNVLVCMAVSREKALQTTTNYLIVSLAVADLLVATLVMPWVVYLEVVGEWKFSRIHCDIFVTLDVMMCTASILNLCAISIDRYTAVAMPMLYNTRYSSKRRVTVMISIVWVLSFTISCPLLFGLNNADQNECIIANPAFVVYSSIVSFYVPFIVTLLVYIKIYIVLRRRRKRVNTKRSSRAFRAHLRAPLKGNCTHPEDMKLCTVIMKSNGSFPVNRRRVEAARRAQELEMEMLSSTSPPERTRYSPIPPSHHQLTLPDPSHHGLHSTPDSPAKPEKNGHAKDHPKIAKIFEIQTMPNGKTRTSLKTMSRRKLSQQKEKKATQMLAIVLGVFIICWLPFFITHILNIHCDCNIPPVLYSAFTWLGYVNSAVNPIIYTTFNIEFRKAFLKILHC
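Agonist mode: compounds alone added to overnight-plated D2 PathHunter cells for 90 min at 37 C, with 57 uM final dopamine (EC100) defining full response. Beta-arrestin recruitment detected by chemiluminescent reagent, read after 1 h at ambient temperature.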
ClpP mod = qHTS Assay for Activators of ClpP; ATP-dependent Clp protease proteolytic subunit (Bacillus subtilis (strain 168)), P80244; purified B. subtilis ClpP, FRET peptide cleavage, 20 min; Potency, µM (titrated, usually from 57.5 µM), for inactives: at the highest dose activity change, negative = active; hit rate 1.9% among 340,000; AID 651965, 2013; active = well fitted falling curve with a large enough effect; inconclusive = small, poorly fitted or top-dose-only effect; inactive = no such curve, though single readings can be large or run the other way; also: potency is read from the fitted curve at half-maximal effect; the source files actives as falling curves though it sought activators and does not explain the sign; nearly all actives have a fitted effect of over 65% in size; many hits overshoot -100%
Target sequence (P80244 whole entry, looked up): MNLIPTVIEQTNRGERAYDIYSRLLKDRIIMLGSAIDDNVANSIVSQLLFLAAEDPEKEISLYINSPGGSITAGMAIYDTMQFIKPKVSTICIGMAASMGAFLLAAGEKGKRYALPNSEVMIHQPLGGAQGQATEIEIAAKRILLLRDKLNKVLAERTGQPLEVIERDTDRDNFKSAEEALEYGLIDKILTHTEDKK
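Buffer: 100 mM Tris/HCl pH8, 100 mM KCl, 0.05% low protease BSA, 2.5% glycerol, 0.01% Tween-20. ClpP 10 microg/mL final; 20 min RT; delta FRET normalized to ADEP and DMSO controls.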
Sfp PPTase inh = blocks B. subtilis Sfp PPTase activity. Q9F4F7. Biochemical Sfp PPTase activity, qHTS. Potency, µM, for inactives: max response, negative = inhibition, actives largely listed as inhibitors. hit rate 3.5% among 310,000. AID 1490; active = well fitted inhibition curve with a large enough effect; inconclusive = small, poorly fitted or top-dose-only effect, or another doubt; inactive = no such curve, though single readings can be large or run the other way;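 also: the enzyme is Sfp with the accession as filed and its product quenches rhodamine fluorescence; potency is read from the fitted curve at half-maximal effect; 0% = enzyme reaction without inhibitor and -100% = no enzyme wells; top concentration of the series not given in the record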
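With Hepes-Na pH 7.6 buffer containing 10 mM MgCl2, Sfp (15 nM) modified BHQ-2-YbbR (12.5 uM) using rhodamine-CoA (5 uM). Two reads 30 minutes apart at 525/598 nm yielded each well's rate.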
gsp antagonist = gsp mutant antagonism | gsp-mutant cells, cAMP HTRF, 30 min; control for the full effect not named in the record | Potency, µM (titrated, usually from 76.9 µM), without a hit: at the highest dose activity change, negative = inhibition, usual class: inhibitors | hit rate 0.4% among 340,000 | AID 624288; active = falling curve of any shape with a large fitted effect; inconclusive = falling curve, mostly with a smaller effect; inactive = flat or rising curve; cell line not stated here;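 also: intracellular cAMP measured with PDE inhibitor Ro 20-1724 present during compound exposure; potency is read from the fitted curve at half-maximal effect; % is scaled to controls: 0 for no effect and ±100 for the full control effect; nearly all actives have a fitted effect of over 65% in size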
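Cells in G418 medium, seeded 16-24 h, 37C; buffer exchange to DPBS + 1 mM CaCl2, 0.5 mM MgCl2, 0.05% BSA; cpds in DMSO + […] (300 uM stock), 30 min 37C; HTRF cAMP detection.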
Menin-MLL FL inh = menin-MLL binding inhibition, fluorescein peptide. Fluorescence polarization, fluorescein-MLL peptide displacement from menin. FP activity change, % at 61.4 µM. 290,000 tested, under 10 active. AID 1766; inconclusive = falling polarisation curve, or a change in total fluorescence; inactive = total fluorescence flat and polarisation flat or rising; no compound was filed as active; the % refers to the polarisation; negative = inhibition;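 also: % of control where 0% means no effect; inhibitors lower the polarisation; unlabelled MLL peptide was the positive control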
Numbers without * were called inactive; u = inconclusive; x = no result given; & = joins results of further samples; [ ] = another dose, or the depositor's remark.

SMILES | PINK1 modulator | gsp ag | D2 ag | ClpP mod | Sfp PPTase inh | gsp antagonist | Menin-MLL FL inh
COc1ccc([N+](=O)[O-])c(OC)c1C(=O)NC(=O)Nc1c(C)cccc1C | 0.5% | 1% | -0.9 | 0.5% | 24% | -4% | -0.7
COc1ccc(Cl)cc1NC(=O)COc1cccc(-n2cnnn2)c1 | 5.0% | -19% | -2.1 | 3.8% | -18% | -8% | 0.2
O=C(Nc1cccc(N=Cc2cc(Br)cc(Br)c2O)c1)c1ccco1 | 0.0% | -21% | -8.8 | -12% | -8% | -33% | u
CCOC(=O)c1ccc(NC(=O)C2(c3ccc(OC)cc3)CCOCC2)cc1 | 0.1% | u | -0.4 | -1.6% | 13% | -8% | -1.1
O=C(CN1CCN(S(=O)(=O)c2ccccc2)CC1)N1CCc2ccccc21 | 1.6% | -34%[inhibitor] | -2.2 | -0.5% | x | -2% | x
CCC1(c2ccc(F)cc2)NC(=O)N(CC(=O)N2CCN(S(=O)(=O)c3ccc(C)cc3)CC2)C1=O (stereo not drawn) | 1.5% | 1%[15.4 µM] | 2.8 | -0.9% | x | -2% | x
CS(=O)(=O)N(CC(=O)NCc1ccccc1Cl)Cc1ccccc1 | 0.7% | 15% | -0.9 | -1.1% | 16% | -20% | 0.7
O=C1C(Cl)=C(Nc2cccc(O)c2)C(=O)N1Cc1ccccc1 | -1.5% | 11%[15.4 µM] | -4.3 | x | -3% | -21% | -1.1
CCOC(=O)c1nnn(CC(=O)N2N=C(c3ccc(Cl)cc3)CC2c2ccc(OC)cc2)c1C(=O)OCC (stereo not drawn) | 7.7% | 21% | 1.6 | -6.0% | 8% | 6% | -3.2
O=C(CCCc1nc2ccccc2s1)Nc1nccs1 | -0.4% | -10% | -3.1 | 2.0% | 45µM* | 3% | 3.4
c1ccc2c(NC3CCCC3)nnc(NC3CCCC3)c2c1 | -0.9% | -16% | -2.7 | u | 16% | 17% | 2.9
O=C(O)c1ccc(-c2nc(-c3ccccc3Cl)cs2)cc1 | 1.4% | u | -3.3 | x | 14% | u | 1.3
COc1ccc(N2CCOCC2)c(NC(=O)c2ccc3c(c2)OCO3)c1 | -1.1% | 8% | -1.7 | x | 14% | 1% | 2.2
Cn1c(N)c(C(=O)COC(=O)c2ccc(F)cc2Cl)c(=O)n(C)c1=O | 9.5% | u | -1.5 | 0.3% | x | -6% | x
O=C(COc1ccc(Cl)cc1)N1CCCCCCC1 | 0.3% | -87%[inhibitor] | 2.4 | x | 3% | 3% | 0.9
COc1ccccc1-c1cnn2c(NCCc3ccccc3)cc(C)nc12 | 4.4% | -44%[inhibitor] | -2.2 | x | 4% | -15% | 4.8
CC(=O)N1Cc2[nH]c3ccccc3c2CC1C(=O)O (stereo not drawn) | -0.9% | -10%[15.4 µM] | 4.3 | -1.1% | -5% | -12% | 2.2
CC(=O)NC(Cc1ccccc1C)C(=O)NC1CCN(C(=O)NCc2ccccc2)CC1 (stereo not drawn) | -0.3% | 7%[15.4 µM] | -1.2 | x | 19% | -12% | -1.0
CC(=O)CSc1nc2ccc(Nc3nc(N4CCOCC4)nc(N4CCOCC4)n3)cc2s1 | -1.3% | -13% | -1.7 | -5.8% | -19% | u | 0.9
CCOC(=O)CCN | 1.4% | -15% | -6.1 | 0.1% | x | 10% | x

Structures listed above marked active in Sfp PPTase inh:
compound,PINK1 modulator,gsp ag,D2 ag,Sfp PPTase inh,Menin-MLL FL inh
O=C(CCCc1nc2ccccc2s1)Nc1nccs1,-0.4%,-10%,-3.1,45µM*,3.4

Additional entries:
SMILES | PINK1 modulator | gsp ag | D2 ag | ClpP mod | Sfp PPTase inh | gsp antagonist | Menin-MLL FL inh
O=C(COc1ccc(C(=O)Nc2ccc(Cl)cc2)cc1)NCc1ccccc1 | 9.9% | 13%[15.4 µM] | 10 | -4.4% | 17% | 6% | -1.4
O=C(NCCn1ccc2ccccc21)c1cccc([N+](=O)[O-])c1 | -0.1% | -3%[15.4 µM] | 1.4 | x | 9% | x | -1.8
CCCc1cc(=O)oc2c(C)c(OCC(=O)N3CCC(C(N)=O)CC3)ccc12 | 1.9% | x | 8.0 | 4.1% | 8% | -9% | -1.8
C=C[C@@H]1c2ccccc2N(S(=O)(=O)c2ccc(C)cc2)[C@H](c2ccc(OC(C)=O)cc2)C1(C#N)C#N | 9.3% | u | -8.1 | 0.7%&2.0% | x | -5% | x
COc1cccc(Nc2nc(-c3cccnc3)cs2)c1 | 1.3% | -9% | -3.8 | -2.1% | 0% | -6% | 3.6
COc1cc(CNc2ccc3c(c2)CCC3)cc(OC)c1O | -0.7%[38.3 µM] | 15% | -2.9 | -4.2% | 40µM* | -17% | 3.6
COc1ccc(CCN2CCCC(CN(C)C(=O)c3ccoc3C)C2)cc1 (stereo not drawn) | -1.5% | 0%[15.4 µM] | -4.6 | -1.9% | 10% | 11% | x
CCNC(=O)NC(=O)c1csc([N+](=O)[O-])c1 | -0.5% | 0%[15.4 µM] | 4.6 | 0.2% | 8% | 5% | 0.0
C=CCOc1ccc2ccccc2c1CNCCCN1CCOCC1 | -1.6% | 17% | -8.9 | -7.0% | 15% | 5% | 6.4
CCN(c1ccccc1)S(=O)(=O)c1cccc(C(=O)N2CCN(S(=O)(=O)c3ccccc3)CC2)c1 | 0.7% | 6%[15.4 µM] | 2.7 | 28µM* | 19% | -28% | x
CC(=O)N1N=C(c2cccc(NS(=O)(=O)c3ccc(C)cc3)c2)CC1c1ccco1 (stereo not drawn) | -0.3% | -15% | 0.8 | -8.9% | u | u | 0.6
CC1(C(=O)N2CCC(CC3CC(c4cccc(Br)c4)=NO3)(C(=O)NCC3CCCCC3)CC2)CC1 (stereo not drawn) | 5.1% | x | -0.2 | 0.4% | 15% | -12% | -0.5
O=C(NCc1cccnc1)c1cc(C2CCCN(C(=O)C3CCCCC3)C2)on1 (stereo not drawn) | 2.2% | x | -1.6 | -0.5% | x | x | x
Nc1ccccc1C(O)(Cc1ccccc1)c1ccccc1 (stereo not drawn) | 14% | -8%[15.4 µM] | -1.3 | 1.3% | 2% | 6% | -2.6
O=C(Cn1c(NCCO)nc2ccccc21)NCCc1ccccc1 | -0.9% | -22% | -6.0 | 0.0% | -5% | 11% | -0.1
COc1ccc(NS(=O)(=O)c2ccc(OC)c(N(C)S(=O)(=O)c3ccc(Cl)cc3)c2)cc1 | -3.0%[38.3 µM] | -59%[inhibitor] | 1.6 | -3.7% | 4% | u | 3.2
CCc1cc2c(=O)[nH]c(Cc3ccc(Cl)cc3)nc2s1 | 1.6% | 23% | -1.7 | -1.9% | 6% | 5% | -1.7
Cn1c(N)c(C(=O)COC(=O)c2nc(Cl)ccc2Cl)c(=O)n(C)c1=O | 1.8% | 8% | -3.0 | -4.5% | 7% | -6% | 0.9
CCCC1CCC(c2nc(-c3cccnc3)no2)CC1 (stereo not drawn) | -1.3% | -11% | -0.3 | 0.6% | u | -6% | 5.4
CCN(C(=O)COC(=O)[C@H](C)N=C1NS(=O)(=O)c2ccccc21)C1CCS(=O)(=O)C1 (stereo partly drawn) | 0.4% | 1%[15.4 µM] | 3.0 | 0.5% | x | 11% | x
COc1ccc(/C=N/NC(=O)c2ccc(O)cc2O)cc1CSc1ccccn1 | 2.3% | -8% | 0.3 | u | -8% | -14% | 4.3
CC1Cc2ccccc2N1C(=O)COC(=O)C1(c2ccccc2F)CCCC1 (stereo not drawn) | -1.4% | 15% | -3.7 | -16% | 1% | -17% | 3.0
CN1CCc2c(OCC(=O)N3N=C(c4cccs4)CC3c3ccc(F)cc3)cccc2C1=O (stereo not drawn) | -0.2% | -21% | -1.5 | u | -7% | -19% | 28
Cc1ccc(-n2ncc3c(=O)n(CC(=O)N(C(C)C)C(C)C)cnc32)cc1 | 3.5% | -5% | -3.5 | -2.9% | 8% | 14% | -2.7
CSc1ccc(C(=O)NC2CCSc3ccccc32)cc1 (stereo not drawn) | -0.8% | 4%[15.4 µM] | -1.4 | x | 7% | 4% | -0.1
CCOc1cc(N2CCOCC2)c(OCC)cc1NC(=O)c1cc(-c2ccco2)nc2ccccc12 | x | -17% | -0.2 | 4.9% | 28µM* | -9% | 2.2
O=C(Cn1c2[n+](c3ccc(C(F)(F)F)cc31)CCCCC2)Nc1ccccc1 | 2.3% | 0% | -0.9 | -4.0% | u | 9% | 2.6
CCCCOP(=O)(c1ccc(N(C)C)cc1)C(O)c1c(Cl)cccc1Cl (stereo not drawn) | -2.6% | 9%[15.4 µM] | -2.3 | -1.5% | 4% | -5% | -1.0
CC(C)n1c(/N=C/c2c[nH]c3ccccc23)nc2ccccc21 | x | -32%[inhibitor] | 0.6 | -17% | -3% | -1% | 5.9
COc1ccc(NC2=NCC(=O)N2c2ccccc2)c(OC)c1 | 1.0% | -2% | -1.3 | -1.4% | 1% | 8% | -0.5
O=C(COc1ccc2ccc(=O)oc2c1)N1CCc2ccccc21 | 6.4% | 26% | -0.6 | x | 27% | 2% | -2.0
Cc1ccc(NC(=O)CSc2nncs2)cc1Cl | 3.0% | u | -1.8 | -2.2% | x | 8% | x
O=C(c1ccco1)N1N=C(c2cccs2)CC1c1cc([N+](=O)[O-])ccc1O (stereo not drawn) | 1.0% | -24% | -1.9 | 0.1% | 2% | u | x
Cc1cc(NC(=O)CSc2nnc(-c3ccc([N+](=O)[O-])cc3)o2)no1 | 1.5% | -3% | 0.3 | 0.7% | 17% | -4% | 0.0
CC(=O)c1ccc(S(=O)(=O)Nc2cccc(S(=O)(=O)NC3=NCCC3)c2)cc1 | -2.4% | -6% | -3.6 | -1.1% | 7% | 1% | -0.6
CCN(CC(=O)Nc1c(F)cccc1F)C(=O)CCNS(=O)(=O)c1ccc(C)c(C)c1 | -0.9% | -5% | -4.6 | 3.6% | x | 7% | x

Screens: PubChem BioAssay, National Center for Advancing Translational Sciences (NCATS)
